SARS PLP yeast: qHTS of Yeast-based Assay for SARS-CoV PLP; 0.19% of 330,000 active; Potency, µM (top dose mostly 32.9 µM), for the others: top-dose activity, positive = growth rescue; S. cerevisiae expressing SARS-CoV PLpro, growth rescue; control for the full effect not named in the record; active means well fitted rising curve with a large enough effect; inconclusive means small, poorly fitted or top-dose-only effect; inactive means no such curve, though single readings can be large or run the other way; also: 0% is about no effect; nearly all actives have a fitted effect of over 55% in size; growth read by luminescence after 48 h
Marburg entry inh: qHTS for inhibitors of binding or entry into cells for Marburg Virus | Potency, µM (series often up to 37.8 µM), inactives show at the highest dose activity change, negative = inhibition, actives largely listed as inhibitors | Marburg virus pseudotyped entry inhibition, cell reporter; control for the full effect not named in the record; about a third of the inactives were read at about 46 µM | AID 540276, 2011 | 1.8% of 300,000 active; active = well fitted inhibition curve with a large enough effect; inconclusive = small, poorly fitted or top-dose-only effect, or effect the other way; inactive = flat fitted curve, though single readings scatter; tested in HEK293 cells; about a fifth of its hits are not listed in these tables; also: % is scaled to controls: 0 for no effect and ±100 for the full control effect; luciferase read-out
LASV entry inh: qHTS for Inhibitors of binding or entry into cells for Lassa Virus. Lassa virus pseudotype entry inhibition, cell reporter; control for the full effect not named in the record. Potency, µM (highest dose often 37.9 µM), for the others: at the highest dose activity change, negative = inhibition, actives largely listed as inhibitors. 1.2% of 300,000 active; active means well fitted inhibition curve with a large enough effect; inconclusive means small, poorly fitted or top-dose-only effect, or effect the other way; inactive means flat fitted curve, though single readings scatter; tested in HEK293 cells; also: % is scaled to controls: 0 for no effect and ±100 for the full control effect; nearly all actives have a fitted effect of over 50% in size; luciferase read-out
RE007 growth inh: qHTS Assay for Inhibitors of the HIV-1 protein Vpr | 0.21% of 360,000 active | AID 651644, 2012 | S. pombe RE007 Vpr strain, BacTiter-Glo ATP luminescence, 24 h; control for the full effect not named in the record | Potency, µM (doses to about 92.2 µM), for the others: top-dose activity change, negative = less growth; active = well fitted falling curve with a large enough effect; inconclusive = small, poorly fitted or top-dose-only effect; inactive = no such curve, though single readings can be large or run the other way;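 also: % is scaled to controls: 0 for no effect and ±100 for the full control effect; nearly all actives have a fitted effect of over 50% in size; the assay follows cell death caused by Vpr and the record does not say whether a fall means rescue or toxicity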
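Fission yeast RE007 carrying one integrated HIV-1 vpr copy, seeded at OD 0.01 in PMG+AL medium with 23 nL pinned compound. Grown 24 h at 30 degrees; viability read by BacTiter-Glo luminescence after 5 min.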
Cruzain inh noDet: qHTS Assay for Promiscuous and Specific Inhibitors of Cruzain (without detergent) | AID 1476, 2009 | Cruzipain (Trypanosoma cruzi), P25779 | 2.3% of 200,000 active | Potency, µM, for inactives: max response, negative = inhibition, most hits filed as inhibitors | purified cruzain, Z-FR-AMC fluorescence, no detergent;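 also: plate controls were enzyme without inhibitor for no effect and buffer without enzyme for full effect; nearly all actives have a fitted effect of over 40% in size; top concentration of the series not given in the record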
Target sequence (P25779 123-467 limits assumed): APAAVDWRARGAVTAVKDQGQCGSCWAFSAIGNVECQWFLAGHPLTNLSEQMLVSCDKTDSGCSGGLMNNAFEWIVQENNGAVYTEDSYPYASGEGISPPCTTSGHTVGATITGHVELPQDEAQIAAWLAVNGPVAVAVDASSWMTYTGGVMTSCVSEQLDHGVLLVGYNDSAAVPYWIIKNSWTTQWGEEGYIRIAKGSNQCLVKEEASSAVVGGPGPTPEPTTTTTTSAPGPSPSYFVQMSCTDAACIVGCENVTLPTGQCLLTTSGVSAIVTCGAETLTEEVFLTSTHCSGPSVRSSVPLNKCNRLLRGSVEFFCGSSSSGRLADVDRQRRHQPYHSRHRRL
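Detergent-free condition (0.00005% Triton X-100) in acetate buffer pH 5.5 with DTT. 1.5 nM enzyme and compound were pre-mixed 15 min, then 2 uM Z-FR-AMC substrate added; reaction progress from fluorescence change between first and third reads (60 s).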
Cruzain inh Det: qHTS Assay for Promiscuous and Specific Inhibitors of Cruzain (with detergent); AID 1478, 2009; 0.43% of 200,000 active; purified cruzain, Z-FR-AMC fluorescence, 0.01% Triton; Potency, µM, for the others: max response, negative = inhibition, usual class: inhibitors;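 also: plate controls were neutral wells for no effect and buffer without enzyme for full effect; nearly all actives have a fitted effect of over 40% in size; top concentration of the series not given in the record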
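In this qHTS format, compounds are incubated with 1.5 nM cruzain for 15 min at room temperature before 2 uM Z-FR-AMC is added. Release of AMC is followed at 360/450 nm, and progress is taken as the 60 s fluorescence difference.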
NS1 function inh: qHTS Assay for Inhibitors of Influenza NS1 Protein Function | S. cerevisiae slowed by influenza A NS1, growth recovery by OD600 | AID 2326, 2010 | 0.4% of 270,000 active | Potency, µM (doses to about 46.1 µM), without a hit: top-dose activity, positive = more growth; active means well fitted rising curve with a large enough effect; inconclusive means small, poorly fitted or top-dose-only effect; inactive means no such curve, though single readings can be large or run the other way; also: nearly all actives have a fitted effect of over 50% in size
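Recovery from NS1-induced slow growth read by OD600 in budding yeast switched to galactose assay medium (pH 6.0, -URA) at 1:100 dilution. Compound 23 nl per well; the matching strain lacking NS1 serves as control.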
StopGo reporter: High Throughput Screening for Foot and Mouth Disease Virus Antivirals. Potency, µM (top dose mostly 57.9 µM), inactives show top-dose signal change, negative = less light. AID 1159524, 2015. human cells with a luciferase reporter of 2A StopGo recoding; control for the full effect not named in the record. 1.2% of 410,000 active; active = well fitted falling curve with a large enough effect; inconclusive = small, poorly fitted or top-dose-only effect; inactive = no such curve, though single readings can be large or run the other way; tested in HEK293T cells; also: % is scaled to controls: 0 for no effect and ±100 for the full control effect; nearly all actives have a fitted effect of over 45% in size; luciferase light after 4 h
Active calls of the source: *; ? = inconclusive; · = no result given; [ ] = dose if it differs, or a comment. Unless noted, calls follow the shape of the dose curve; as a rule, active = well fitted curve in the direction sought with a large enough effect; inconclusive = small, poorly fitted or top-dose-only effect, or another doubt; inactive = no such curve, though single readings can be large; an effect the other way counts as inactive or inconclusive. Potency is read from the fitted curve at half-maximal effect.

SMILES	SARS PLP yeast	Marburg entry inh	LASV entry inh	RE007 growth inh	Cruzain inh noDet	Cruzain inh Det	NS1 function inh	StopGo reporter
CCc1ccc(C(CC(=O)c2ccc(Cl)cc2)C(=O)O)cc1 (centres undefined)	-6.8%	-14.5%	19.0%	13.5%	8.4%	1.4%	-57.0%	-22.1%
Cc1cccc(C(=O)NCC2CCCO2)c1 (centres undefined)	-14.1%	?	25.6%	-2.9%	12.5%	1.4%	3.0%	13.3%
Cc1ccc(Sc2ccc(N3CCC(C(=O)Nc4ccc(C)c(F)c4)CC3)nn2)cc1	·	-2.8%[46.1 µM]	-0.7%[46.1 µM]	·	2.8%	-1.7%	·	10.3%
CSc1nc(-c2ccccc2)nc2c1COC(C)(C)C2	0.2%	19.2%[46.1 µM]	8.5%	20.7%	-6.5%	-5.1%	-36.9%	-5.2%
COc1cc(C=NNC(=O)c2cccnc2)ccc1OC(=O)c1ccccc1F	4.0%	1.0%	1.2%	16.0%	·	·	·	-2.0%
Cc1sc2ncn(CC(=O)Nc3cccc(C(F)(F)F)c3)c(=O)c2c1S(=O)(=O)N1CCC(C)CC1	·	-5.2%[46.1 µM]	6.4%[46.1 µM]	·	-5.3%	1.3%	·	3.0%
Cc1ccc(CN(Cc2ccco2)C(=O)COc2c(C)cc(C)cc2C)cc1	·	?	?	·	-16.2%	-10.1%	·	-29.2%
Cc1ccc(C)c(N2CN(Cc3cccnc3)CNC2=S)c1	12.6%	4.0%	-12.9%	-5.0%	-11.8%	-6.3%	10.6%	-15.9%
CCC1CN(C(=O)N2CCC(C(=O)NCc3ccc(OC)cc3OC)CC2)c2cc(C)ccc2O1 (centres undefined)	·	·	?	·	?	-7.4%	·	-12.5%
CN(C)c1cccc(C(=O)NNC(=O)CN2C(=O)C3CC=CCC3C2=O)c1 (centres undefined)	10.8%	?	-23.9%[46.1 µM]	-2.6%	·	·	·	21.9%
COC(=O)C1CCCCN1C(=O)CCc1nnc(CCc2c[nH]c3ccccc23)o1 (centres undefined)	0.6%	·	·	11.1%	·	·	1.9%	-21.2%
O=C(Nc1nnc(-c2ccc3c(c2)CCCC3)o1)c1ccccc1Cl	-11.1%	·	·	-18.7%	-5.0%	-12.3%	-234.7%	5.1%
CCc1nc2ccccc2n1CC1CC1(Cl)Cl (centres undefined)	2.9%	17.0%[46.1 µM]	-12.3%	-14.3%	·	·	·	-0.5%
CCCCCCOc1ccc(C(=O)O)cc1C#N	-40.2%	24.9%	5.5%	-13.5%	2.3%	-5.3%	-27.6%	18.8%
CCOC(=O)C1CCN(C(=O)c2ccc(NS(=O)(=O)c3ccc(F)cc3C)cc2)CC1	-0.1%	3.5%[46.1 µM]	-16.7%	-13.6%	·	·	·	32.6%[activator]
C=CCN1C(=O)C2C(C(=O)NCc3ccccc3)C3C=CC2(O3)C1C(=O)NC(C)(C)C (centres undefined)	-4.6%	-2.2%	-6.2%	0.6%	4.9%	0.3%	2.8%	6.6%
CCc1ccccc1NC(=O)CN1C(=O)CCn2nc(-c3cccn3C)cc21	·	·	10.1%[46.1 µM]	·	9.4%	-1.1%	·	-13.4%
CCn1cc(S(=O)(=O)CC(=O)Nc2ccc(OC)cc2)c2ccccc21	7.9%	0.6%	-21.8%	2.0%	-4.6%	-1.1%	0.6%	20.1%
CS(=O)(=O)N1CCCC(C(=O)NCc2ccccc2Cl)C1 (centres undefined)	-3.7%	18.3%	2.5%	-12.9%	0.4%	6.7%	-15.3%	·
COc1cccc(/C=N/NC(=S)NC2CC3CC2C2C=CCC32)c1O (centres undefined)	6.7%	?	9.4%	20.3%	·	·	-1.0%	36.6%[activator]

Quoted at random: 6 records from the list, in no set order.
SMILES	SARS PLP yeast	Marburg entry inh	LASV entry inh	RE007 growth inh	Cruzain inh noDet	Cruzain inh Det	NS1 function inh	StopGo reporter
CN(C)c1cccc(C(=O)NNC(=O)CN2C(=O)C3CC=CCC3C2=O)c1 (centres undefined)	10.8%	?	-23.9%[46.1 µM]	-2.6%	·	·	·	21.9%
COc1cccc(/C=N/NC(=S)NC2CC3CC2C2C=CCC32)c1O (centres undefined)	6.7%	?	9.4%	20.3%	·	·	-1.0%	36.6%[activator]
Cc1cccc(C(=O)NCC2CCCO2)c1 (centres undefined)	-14.1%	?	25.6%	-2.9%	12.5%	1.4%	3.0%	13.3%
COC(=O)C1CCCCN1C(=O)CCc1nnc(CCc2c[nH]c3ccccc23)o1 (centres undefined)	0.6%	·	·	11.1%	·	·	1.9%	-21.2%
C=CCN1C(=O)C2C(C(=O)NCc3ccccc3)C3C=CC2(O3)C1C(=O)NC(C)(C)C (centres undefined)	-4.6%	-2.2%	-6.2%	0.6%	4.9%	0.3%	2.8%	6.6%
Cc1ccc(Sc2ccc(N3CCC(C(=O)Nc4ccc(C)c(F)c4)CC3)nn2)cc1	·	-2.8%[46.1 µM]	-0.7%[46.1 µM]	·	2.8%	-1.7%	·	10.3%

(listing goes on)
SMILES	SARS PLP yeast	Marburg entry inh	LASV entry inh	RE007 growth inh	Cruzain inh noDet	Cruzain inh Det	NS1 function inh	StopGo reporter
CC(=O)N1c2ccccc2Sc2ccccc21	-4.8%	·	·	4.8%	·	·	14.1%	-0.9%
O=C(CN1CCCC1)Nc1ccc(Cl)cc1C(F)(F)F	-2.9%	?	4.6%	-3.4%	·	·	·	14.4%
CCOC(=O)c1nnsc1NC(=O)Nc1ccc(OC)cc1	1.8%	-0.2%[46.1 µM]	16.8%	-18.0%	·	·	·	13.8%
CCC(=O)Nc1nc(NCc2ccccc2OC)n(-c2ccccc2)n1	-1.4%	·	·	-8.4%	·	·	3.9%	7.2%
COC(=O)c1ccccc1NC(=O)c1ccc(COc2ccccc2)o1	·	?	9.8%	-11.0%	-16.9%	-12.3%	-13.8%	-9.7%
O=C(Nc1c2c(nn1-c1ccc(F)cc1)CS(=O)(=O)C2)c1ccc2c(c1)OCO2	-1.6%	·	·	0.1%	·	·	9.4%	-15.8%
CCOC(=O)C1CCCCN1C(=O)CCc1c(C)nc2ncnn2c1C (centres undefined)	4.3%	3.3%	1.7%	-5.1%	-6.4%	-0.1%	5.3%	-20.2%
O=C(c1cccs1)N1CCCC(c2nc(-c3ccc(F)cc3)no2)C1 (centres undefined)	2.3%	6.6%	6.1%	16.1%	-5.0%	-2.3%	-14.3%	-10.9%
Cc1cc(/C=C2/C(=O)NC(=O)N(C)C2=O)c(C)n1-c1ccccc1	0.4%	4.4%[46.1 µM]	0.8%[46.1 µM]	?	·	·	5.8%	34.5%[activator]
CC(C)(C)NC(=O)CCN(/N=C/c1ccc([N+](=O)[O-])o1)C1=NS(=O)(=O)c2ccccc21	-10.7%	?	-2.5%	-13.3%	-4.5%	-6.2%	-3.3%	?
COc1ccc(-c2cc(C(F)(F)F)nc(N3CCN(c4ccc(F)cc4)CC3)n2)cc1OC	19.8%	?	22.3%	-8.4%	8.3%	4.1%	0.4%	-12.9%
OC(CN1C2=NCCN2c2ccccc21)c1ccc(Br)cc1 (centres undefined)	-5.7%	?	-19.5%	-23.6%	-5.0%	1.3%	3.9%	-22.7%
Cc1c(N=C2SCC(=O)N2/N=C/c2ccccc2)c(=O)n(-c2ccccc2)n1C	5.0%	?	0.8%	-18.9%	-5.2%	1.1%	1.5%	-1.7%
CC(C)C(C)(C#N)NC(=O)CSc1nnc(-c2ccccc2)o1 (centres undefined)	5.4%	19.5%	9.7%	-5.7%	-10.7%	3.3%	-3.3%	3.9%
Cc1cccc(NC(=O)CSc2nc(C)nc3c2c(=O)n(C)c(=O)n3C)c1	-2.8%	·	·	-0.7%	5.0%	-1.4%	-1.0%	-13.6%
O=c1[nH]c2cc3c(cc2cc1CN(CCO)S(=O)(=O)c1ccccc1)OCCO3	1.7%	-11.3%[46.1 µM]	-4.1%	7.3%	·	·	-2.2%	-20.7%
c1cncc(-c2nc(N3CCOCC3)c3ccccc3n2)c1	-28.7%	?	-4.8%	1.8%	2.5%	-1.3%	-1.1%	·
COc1ccc(N2CC(NC(=O)C(c3ccccc3)c3ccccc3)CC2=O)cc1OC (centres undefined)	·	·	-18.9%[46.1 µM]	·	?	-1.1%	·	-19.6%
O=C(CCNC(=O)c1ccc([N+](=O)[O-])cc1)NCCc1ccc(Cl)cc1	15.1%	2.2%[46.1 µM]	17.8%[46.1 µM]	-6.0%	·	·	3.6%	1.1%
CC(Cc1ccccc1)C(=O)N(C)Cc1cccnc1 (centres undefined)	-13.1%	30.9%	-0.2%	-3.2%	5.5%	2.6%	-1.7%	-7.6%
CC(C)(C)NC(=O)CN(C(=O)CNC(=O)c1cccs1)c1ccc2c(c1)OCCO2	3.6%	2.0%	13.3%	-8.7%	1.6%	2.4%	-3.2%	-6.3%
Cc1nc(SCc2ccccc2)[nH]c(=O)c1CC(=O)OCC(C)C	-1.3%	-2.8%	·	-7.6%	·	·	-4.7%	3.4%
Cc1ccc(NC(=O)CNc2cccc(S(=O)(=O)N3CCOCC3)c2)cc1F	0.0%	-29.2%	-5.9%[46.1 µM]	5.1%	·	·	·	?
COc1cc(NC(=O)CSc2nc3cc(C)ccc3cc2C)c(C(=O)O)cc1OC	25.3%	0.3%	10.7%	-1.5%	?	-10.3%	14.8%	0.0%
COc1ccc(Cl)cc1NC(=O)CN1CCc2ccccc21	-2.3%	-5.3%[46.1 µM]	5.1%	3.5%	·	·	4.1%	0.0%
CN(C)c1nn(C(=O)Nc2ccc(Cl)cc2Cl)cc1-c1ccccc1	2.5%	0.7%	-8.8%	-8.8%	-0.8%	5.0%	-14.1%	-7.3%

Bioassay records as filed in PubChem BioAssay.
